VDR inh: Inhibitors of the vitamin D receptor (VDR): qHTS; Vitamin D3 receptor (Homo sapiens), P11473; VDR-SRC2-3 peptide fluorescence polarization, 2 h; Potency, µM, for the others: max response, negative = inhibition, usual class: inhibitors; 0.93% of 400,000 active; active means well fitted inhibition curve with a large enough effect; inconclusive means small, poorly fitted or top-dose-only effect, or another doubt; inactive means no such curve, though single readings can be large or run the other way; further: series mostly up to about 120 µM
Target sequence (P11473 whole entry, looked up): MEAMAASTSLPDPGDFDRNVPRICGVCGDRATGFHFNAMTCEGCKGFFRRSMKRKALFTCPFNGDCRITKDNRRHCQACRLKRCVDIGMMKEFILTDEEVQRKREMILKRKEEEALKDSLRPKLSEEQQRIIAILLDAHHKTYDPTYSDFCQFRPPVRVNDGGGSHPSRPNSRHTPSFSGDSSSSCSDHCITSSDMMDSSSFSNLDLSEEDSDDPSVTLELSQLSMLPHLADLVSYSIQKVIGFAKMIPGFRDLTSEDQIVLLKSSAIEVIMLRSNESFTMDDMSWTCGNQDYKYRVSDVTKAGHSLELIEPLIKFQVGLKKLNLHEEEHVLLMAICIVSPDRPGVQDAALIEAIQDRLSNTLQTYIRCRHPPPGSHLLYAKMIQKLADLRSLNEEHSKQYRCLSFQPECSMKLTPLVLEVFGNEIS
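VDR–SRC2-3 interaction, FP format. Cmpds 23 nl via pintool, brief spin, 2 h ambient incubation.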
Starred values were filed as active, the others as inactive; u = inconclusive; & = joins results of further samples; [ ] = remark or other dose. On the % scale 0 is the no-effect control and ±100 the full control effect; potency means the concentration at half of the fitted maximal effect. This is a subset. The share of hits here may be higher or lower than overall.

SMILES	VDR inh
Cc1n[nH]c(C)c1NC(=O)c1cc([N+](=O)[O-])ccc1Cl	-1%
COC(=O)c1ccc(Cl)c(NC(=O)CSc2ncn[nH]2)c1	-7%
O=C(c1ccc(S(=O)(=O)c2ccccc2)cc1)N1CCc2ccccc2C1	-2%
Cc1ccc(NC(=O)COc2ccc(N3CC(C(N)=O)CC3=O)cc2)c(C)c1 (centres undefined)	-15%
NS(=O)(=O)c1ccc(CCNC(=O)c2cccnc2)cc1	0%
O=c1c2ccccc2sc2ccc(NCCCN3CCOCC3)cc12	-18%
Cc1ccc(CNC(=O)Cn2c(=O)n(-c3ccc(C)c(F)c3)c(=O)c3sc4ccccc4c32)cc1	-11%
Nc1c(-c2nc(-c3ccccc3)cs2)c2ccccn2c1C(=O)c1ccc2c(c1)OCO2	-1%
Cc1ccc(S(=O)(=O)C2(C(=O)N3CCCCCC3)CC2)cc1	-4%
Cn1c(SCC(=O)NCCc2ccccc2)ncc(C(=O)Nc2ccc(F)cc2)c1=O	-8%
COc1cccc(C2C(C(=O)Nc3ccc(Cl)cc3)=C(C)Nc3nc4ccccc4n32)c1OC (centres undefined)	-5%
COCCN(C(=O)CSc1n[nH]c(-c2ccccc2)n1)c1c(N)n(Cc2ccccc2)c(=O)[nH]c1=O	5%
O=C(CNCCc1ccc(Cl)cc1Cl)NCc1ccco1	4%
O=S(=O)(Cc1ccccc1)NCc1ccccn1	6%
CSc1cccc(CN2CCC(n3nccc3NC(=O)C3CC3)CC2)c1	-17%
CC(C)C[C@@H](CC(=O)N[C@H](CC(=O)N[C@@H]1CCCC[C@H]1C(=O)N[C@H](CC(=O)N[C@@H](CCC(=O)O)CC(=O)O)CC(C)C)C(C)C)NC(=O)[C@@H]1CNCC[C@H]1N	-2%
Cc1nc2nc(-c3ccc(Cl)cc3)cn2nc1C	5%
O=C(/C=C/c1ccco1)NCCc1ccc(F)cc1	-3%
CCOc1ccc(-c2nnn(CC#N)n2)cc1OC	9%
O=C(Nc1ccc2c(c1)OCCO2)C1CCN(c2nnnn2-c2ccccc2)CC1	16%
Cc1cc(/C=N/NC(=O)c2cccs2)c(C)n1-c1cnccn1	7%
N#CC1(NC(=O)COc2ccc3ccc(=O)oc3c2)CCCCC1	-9%
O=C(NN1C(=O)C2C3C=CC(C4CC34)C2C1=O)c1ccc(Cl)cc1 (centres undefined)	2%
COc1cccc(NC(=O)C2(S(=O)(=O)c3ccc(Cl)cc3)CC2)c1	1%
S=C(Nc1ccccc1Cl)N(CCCN1CCOCC1)Cc1ccccn1	14%

3 entries out of the list, ordered by molecular weight, low to high.
SMILES	VDR inh
NS(=O)(=O)c1ccc(CCNC(=O)c2cccnc2)cc1	0%
Cc1cc(/C=N/NC(=O)c2cccs2)c(C)n1-c1cnccn1	7%
Cc1ccc(CNC(=O)Cn2c(=O)n(-c3ccc(C)c(F)c3)c(=O)c3sc4ccccc4c32)cc1	-11%

Other compounds follow:
SMILES	VDR inh
O=C(Cn1cc(C(=S)N2CCOCC2)c2ccccc21)N1CCOCC1	1%
C/C(=C/c1ccccc1)C(=O)N1CC(C)OC(C)C1 (centres undefined)	-11%
COc1ccc(Oc2ncc3nc(CCc4ccccc4)c(=O)n(CCC#N)c3n2)cc1	1%
COc1ccccc1C(=O)NCC(=O)N/N=C/c1ccc([N+](=O)[O-])cc1	-16%
CCOC(=O)C1=C(c2ccccc2)NC(=O)NC1c1cc(Br)c(O)c(OC)c1 (centres undefined)	22%
CCCS(=O)(=O)Nc1cccc(-c2cn3ccsc3n2)c1	1%
C[C@@H]1Cc2c(O)c(O)cc(O)c2C(=O)O1	9%
COc1cc(NC(=O)c2cccs2)c(C(=O)OCC(=O)c2cc(C)n(-c3ccc(F)cc3)c2C)cc1OC	-2%
C=CCCCCc1nc2ccccc2c(=O)n1N	-24%
COc1ccc(CN(C)C(=O)Cn2ccsc2=N)cc1OC	8%
N#Cc1ccc(/C=C\c2nccc3c2[nH]c2ccccc23)cc1	12%
CC(=O)c1c(C)[n+]([O-])c2ccc3c(non3O)c12	-6%
Cn1c(=O)c2c(nc(N3CCOCC3)n2CCCNC2=NCCC2)n(C)c1=O	-10%
COc1ccc(C(=O)Nc2cc(-c3nc4ncccc4o3)ccc2C)cc1Br	-16%
COCCN(CCOC)C(=O)c1cc2c(=O)n3ccccc3nc2n1C	-6%
COc1ccc(Br)cc1CN1C(=O)NC2(CCCCCC2)C1=O	-1%
Cc1ccc(NC(=O)CN(C)C(=O)C(C)N2CCN(Cc3ccccc3C)CC2)cc1 (centres undefined)	-13%
CCOc1ccc(NC(=O)[C@@H](NC(=O)OCc2ccccc2)[C@@H](C)CC)cc1	-16%
COc1ccc(NC(C)=O)cc1NC(=O)CCn1c(=O)sc2ccccc21	19%
N#Cc1cnc2nc(SCc3ccccc3)nn2c1	12%
CCOC(=O)c1sc2nc(CSc3ccccc3)nc(NCCN(C)C)c2c1C	28%
N#Cc1nc(Cc2ccccc2)oc1NCCc1ccccc1	3%
Cc1cc(C)n2nc(C(=O)OCC(=O)N(C)Cc3ccccc3)nc2n1	3%
Cc1ccc2nc(NC(=O)C3CCN(S(=O)(=O)c4cccc5nsnc45)CC3)sc2c1	-13%
Cc1ccc(-n2c(=O)[nH]c3cc(C(=O)NCCc4ccccc4)ccc3c2=O)cc1	-5%

Reprinted from the part before: 4 compounds; new compounds follow.
SMILES	VDR inh
N#Cc1nc(Cc2ccccc2)oc1NCCc1ccccc1	3%
Cc1cc(C)n2nc(C(=O)OCC(=O)N(C)Cc3ccccc3)nc2n1	3%
Cc1ccc2nc(NC(=O)C3CCN(S(=O)(=O)c4cccc5nsnc45)CC3)sc2c1	-13%
Cc1ccc(-n2c(=O)[nH]c3cc(C(=O)NCCc4ccccc4)ccc3c2=O)cc1	-5%
COCCn1c(C(C)C)nc2oc3ccccc3c(=O)c2c1=O	15%
CCc1ccccc1NC(=O)N1CCN(Cc2nc3ccc(C)cc3o2)CC1	7%
CN1CCN(C(=O)CSc2nc(-c3ccncc3)ccc2C#N)CC1	-14%
O=C(Cc1c(O)c2ccccc2[nH]c1=O)NC1CCCCCC1	4%
CN(c1ccccc1)S(=O)(=O)c1ccc(C(=O)Nc2nnc(-c3ccc(F)cc3)o2)cc1	0%
Cc1ccc(S(=O)(=O)NCCC(=O)Nc2cccc(Cl)c2)cc1	-6%
Cc1ccc(-c2n[nH]c3c2C(c2cccs2)N(c2ccc(Cl)cc2)C3=O)cc1 (centres undefined)	-9%
CCOc1ccc(CN2CCSCC2)cc1	-23%
COc1ccc(-n2cc(-c3ccccc3)c3c(N4CCOCC4)ncnc32)cc1	-25%
CCOc1nonc1C(=N)/C(C(C)=O)=C(\C)O	-2%
CC(=O)Nc1ccc(S(=O)(=O)Nc2ccc([N+](=O)[O-])cc2)cc1	6%
CC1CCCCN1C(=O)c1cc(-c2ccc(Cl)c(Cl)c2)on1 (centres undefined)	-23%
Nc1c2c(nc3c1CCCC3)CCCC2 (tested in a mixture with another compound)	6%
CCn1c(=O)c(CCC(=O)N2CCOCC2)c(C)c2c(C)nn(-c3ccccc3)c21	7%
Cc1c(-c2ccnc3cc(C(=O)O)nn23)cnn1C	8%
COc1cc(C2C(C#N)=C(N)OC3=C2C(=O)CC(C)(C)C3)c([N+](=O)[O-])cc1OC (centres undefined)	4%
CCN(CC)c1ccc(/C=C(\C#N)C(N)=O)cc1	5%
O=C(Nc1cc(N2CCOCC2)ncn1)NC1(C(F)(F)F)Oc2ccccc2O1	-14%
CCCCN1C(=O)C(=O)N(CC(=O)Nc2sc(C)c(CC)c2C(=O)OCC)C1=O	3%
c1ccc(-n2c(Cc3cn4ccsc4n3)nnc2N2CCOCC2)cc1	-6%
O=S(=O)(NCCc1c[nH]c2ccccc12)c1ccc(F)cc1	8%
Cc1nc2ccccc2c(=O)n1/N=C/c1ccccc1F	-9%
O=C(Oc1ccccc1C(=O)N1CCOCC1)c1ccc(Br)cc1	4%
COc1ccc(OC)c2[nH]c(=O)c(CCNC(=O)c3ccc(S(=O)(=O)N(C)C)cc3)cc12	1%
CC1(C)Cc2ccccc2-c2nnc(-c3ccccc3)n21	9%
Continuation:
SMILES	VDR inh
Cc1ccc(N2CCN(C(=O)CNS(=O)(=O)c3ccc(Br)s3)CC2C)cc1 (centres undefined)	-10%
CCSc1nnc(NC(=O)CSc2nc3c(c(=O)n2-c2ccccc2)SCC3)s1	3%
Brc1ccc(-c2cn3nc4c(nc3n2)CCCC4)cc1	-12%
O=c1c2cnn(-c3ccccc3)c2nc(-c2ccco2)n1-c1ccccc1	14%
CN(CC1COc2ccccc2O1)C(=S)Nc1ccccc1F (centres undefined)	7%
CCC(NC(=O)Cc1c(C)c2cc3c(cc2oc1=O)OC(C)(C)CC3)C(=O)O (centres undefined)	-7%
COc1ccc(C(=O)O)cc1NC(=S)NC(=O)C(c1ccccc1)c1ccccc1	-9%
COc1ccc(C(=O)Nn2cnc3ccccc3c2=O)cc1[N+](=O)[O-]	-5%
COc1ccc(CNC(=O)C(=O)NCC2CCCN2S(=O)(=O)c2ccccc2)cc1 (centres undefined)	7%
CCc1ccc(N=C2NC(=O)/C(=C/c3ccc(OCC(=O)O)c(OC)c3)S2)cc1	-16%
O=C(COc1ncnc2sccc12)N1CCN(c2ccccc2)CC1	-6%
O=C(C[C@@H]1C/C=C\CCCC(=O)OC[C@@H]2CCCN2C1=O)N[C@@H](CO)Cc1ccccc1	-21%
C=COCCn1c(-c2nonc2N)nc2ccccc21	-3%
Cc1ccccc1COc1ccc(/C=C(\C#N)C(N)=O)cc1	-2%
Cc1c(C(=O)Nc2cccc(C(F)(F)F)c2)sc2nc[nH]c(=O)c12	2%
N#Cc1nc(COc2ccc(Cl)cc2)oc1N1CCCC1	6%
C/C(=N\O)C(=O)NCc1ccncc1	3%
COc1ccccc1CN1C(=S)SC(C)(C)C1NO (centres undefined)	-12%
CC(=O)CC(CC(=O)NC1CCCCC1)c1ccccc1 (centres undefined)	2%
CC(=O)c1ccc(S(=O)(=O)N(C)CC(=O)Nc2cccc(S(=O)(=O)N3CCCC3)c2)cc1	-8%
Cc1nn(CC(=O)NCCc2ccco2)c(=O)c2nn(-c3ccccc3)c(C)c12	3%
CC(=O)N1CCN=C1SCc1cccc(Cl)c1	-10%
CC(=O)CCC1CC(c2ccc(Cl)cc2)=NO1 (centres undefined)	-8%
COc1ccc(Br)cc1/C=N/NC(=O)c1ccc2nc[nH]c2c1	0%
Cc1ccccc1N(CC(=O)N1CCCCCC1)S(C)(=O)=O	-2%

Filtered by structure, the entries above containing a CF3 group.
SMILES	VDR inh
O=C(Nc1cc(N2CCOCC2)ncn1)NC1(C(F)(F)F)Oc2ccccc2O1	-14%
Cc1c(C(=O)Nc2cccc(C(F)(F)F)c2)sc2nc[nH]c(=O)c12	2%

Two compounds picked at random from the list so far:
SMILES	VDR inh
C=COCCn1c(-c2nonc2N)nc2ccccc21	-3%
Brc1ccc(-c2cn3nc4c(nc3n2)CCCC4)cc1	-12%

Next part:
SMILES	VDR inh
COc1ccccc1/C=C/C1(C(=O)NC2CCCC2)CC(=O)N1c1ccc(F)cc1 (centres undefined)	-3%
COC(=O)[C@H]1O[C@@H](c2cc(OC)c(C)c(OC)c2OCc2ccccc2)[C@H](C)[C@H]2O[C@@]12C	0%&-3%
CC(=O)Nc1ccc(NC(=O)C(C)OC(=O)CNC(=O)c2ccc(-c3ccccc3)cc2)cc1 (centres undefined)	7%
CCCn1c(SCC(=O)N2CCCCC2)nnc1-c1ccco1	-5%
Cc1cc(C(C)(C)C)cc(S(=O)(=O)NCCc2ccncc2)c1C	-3%
COc1ccc(N(Cc2cc(=O)[nH]c3ccccc23)C(=O)C(C)C)cc1	-8%
C#CCCc1cocc1/C=[N+](\[O-])c1ccc(C(=O)OCC)cc1	-10%
CN(CCCNC(=O)c1cc2c(Cl)nc3ccccc3c2s1)Cc1ccccc1	-5%&-16%
Nc1nc(Cl)cc(N2CCCC2)n1	5%
Cc1cc(/C=C2/NC(=O)N(Cc3ccccc3F)C2=O)c(C)n1-c1ccccn1	-14%
Clc1ccc(-c2nc(N3CCCCC3)nc3ccccc23)cc1	-16%
COCCCNC(=O)c1ccccc1Sc1ccc(NC(C)=O)nc1	9%
COc1cccc(Cn2c(=O)c(-c3ccccc3)nc3cnc(OC)nc32)c1	-7%
CCC(=O)NC(c1ccc(OC)cc1)c1cc(Cl)c2cccnc2c1O (centres undefined)	-17%
Cn1c(Sc2ccc(Br)cc2)c(C=O)c2ccccc21	-16%
CC(NC(=O)CCNS(=O)(=O)c1ccc2c(c1)oc(=O)n2C)c1ccccc1 (centres undefined)	10%
CCOC(=O)c1ccc(S(=O)(=O)N(CCO)Cc2cc3cc(OC)c(OC)cc3[nH]c2=O)cc1	7%
Cc1c(C=NNC(=O)c2ccc(Br)cc2)c2ccccn2c1C(=O)c1ccncc1	-13%
CC(=O)N(C)C1(c2nnnn2CCOC(=O)Nc2ccc(Cl)cc2)CCCCC1	-8%
CC(C)OCCCNC(=O)c1cc(S(=O)(=O)N2CCc3ccccc32)cn1C	-13%
COCCN(Cc1ccccc1)C(=O)Cc1ccc(OC)c(S(=O)(=O)N2CCOCC2)c1	8%
O=C1C=C(NCc2ccccc2)CCC1	5%
CCC(C(=O)Nc1ncccn1)(C(F)(F)F)C(F)(F)F	1%
CC1CC(C)CN(C(=O)CSCC(=O)O)C1 (centres undefined)	-3%
COc1ccc(Cl)cc1C(=O)NCc1ccc2c(c1)OCO2	46%[activator]
(listing goes on)
SMILES	VDR inh
O=C(COC(=O)/C=C/c1ccc(F)cc1)Nc1ccccc1-c1ccccc1	-12%
O=c1[nH]c2cc3c(cc2cc1CN(Cc1ccccc1)Cc1nnnn1Cc1ccco1)OCCO3	u
CCOc1cc2[nH]c(=S)n(CCCN3CCOCC3)c(=O)c2cc1OCC	2%
CCOC(=O)c1c(C)[nH]c(C=C2C(=O)CCCC2=O)c1O	-2%
COc1ccccc1C(=O)NCCC(=O)NCC(c1ccccc1)N(C)C (centres undefined)	-1%
CC(C)=CCCC(C)CN1CCC(n2nccc2NC(=O)c2ccccc2)CC1 (centres undefined)	-12%
COc1cc(C(=O)N2C(=O)c3cccc(N)c3C2=O)cc(OC)c1OC	-1%
